High-throughput results deposited in PubChem by National Center for Advancing Translational Sciences (NCATS).
D2 potentiator: positive allosteric modulators of human D2 dopamine receptor; AID 624464; hit rate 0.23% among 360,000; potentiation, % (concentration not given with the values); DiscoveRx D2 beta-arrestin cells, luminescence, 90 min; 100% = 57 uM dopamine signal; P14416; active = potentiation of 50% or more; inconclusive = 30% to 50%; inactive = 30% or less;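 further: compound concentration not given in the record; tested on top of an EC20 dose of dopamine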
Target sequence (P14416 whole entry, looked up): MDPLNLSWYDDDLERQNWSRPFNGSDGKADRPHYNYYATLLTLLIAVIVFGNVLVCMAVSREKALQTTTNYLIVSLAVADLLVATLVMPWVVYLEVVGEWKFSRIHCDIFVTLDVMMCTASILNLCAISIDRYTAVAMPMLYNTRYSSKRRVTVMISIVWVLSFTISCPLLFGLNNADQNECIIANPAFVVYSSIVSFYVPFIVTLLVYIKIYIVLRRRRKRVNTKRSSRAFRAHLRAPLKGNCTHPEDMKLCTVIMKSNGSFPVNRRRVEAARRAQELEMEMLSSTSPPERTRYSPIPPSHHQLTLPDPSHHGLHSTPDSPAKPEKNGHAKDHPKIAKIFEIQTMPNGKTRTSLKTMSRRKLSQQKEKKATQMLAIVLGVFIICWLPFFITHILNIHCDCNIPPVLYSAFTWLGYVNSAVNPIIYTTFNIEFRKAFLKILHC
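PathHunter D2 cells, attached overnight at 37 deg C, received compound in DMSO plus dopamine at EC20 (50 nM final) for 90 min at 37 deg C. Beta-arrestin recruitment was read as luminescence after 1 h with detection reagent at ambient temperature.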
Sfp PPTase inh: blocks B. subtilis Sfp PPTase activity; Q9F4F7; Biochemical Sfp PPTase activity, qHTS; Potency, µM, without a hit: max response, negative = inhibition, usual class: inhibitors; hit rate 3.5% among 310,000; AID 1490; active means well fitted inhibition curve with a large enough effect; inconclusive means small, poorly fitted or top-dose-only effect, or another doubt; inactive means no such curve, though single readings can be large or run the other way;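 further: the enzyme is Sfp with the accession as filed and its product quenches rhodamine fluorescence; potency means the concentration at half of the fitted maximal effect; 0% = enzyme reaction without inhibitor and -100% = no enzyme wells; top concentration of the series not given in the record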
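Sfp 15 nM + cpd, 15 min RT; start w/ rhodamine-CoA 5 uM, BHQ-2-YbbR 12.5 uM (final); 50 mM Hepes pH 7.6, 10 mM MgCl2, 0.01% NP-40, 0.01% BSA; read 525/598 nm at 0 and 30 min.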
TRPV1 potentiator: human TRPV1 potentiation; Q8NER1; TRPV1-expressing cells, Fluo-8 calcium influx, capsaicin EC20 potentiation; host cell line not named in the record; control for the full effect not named in the record; potentiation, % at 8.33 µM; hit rate 0.02% among 320,000; AID 540277; active means potentiation above 80%; inconclusive means 30% to 80%; inactive means below 30%; further: 0% is about no effect
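Fluo-8 calcium influx in TRPV1-expressing cells, kinetic read (ex 480/em 520 nm). Compound added and read 3 min for agonist activity, followed by capsaicin at EC20 final and 2 min further read for enhancement.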
D2 agonist: agonists of human D2 dopamine receptor (beta-arrestin); P14416; DiscoveRx PathHunter D2 beta-arrestin, luminescence, 90 min; 100% = 57 uM dopamine signal; activation, % (no concentration beside the values); hit rate 0.084% among 360,000; AID 624465; in the data active = activation above about 40%; inconclusive = about 15% to 40%; inactive = below about 15%; further: compound concentration not given in the record; the text of the record calls up to 30% inactive
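Agonist mode: compounds alone added to overnight-plated D2 PathHunter cells for 90 min at 37 C, with 57 uM final dopamine (EC100) defining full response. Beta-arrestin recruitment detected by chemiluminescent reagent, read after 1 h at ambient temperature.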
Six1-Eya2 blk: Six1/Eya2 interaction inhibition; activity change, % (concentration not given with the values); AID 651725; AlphaScreen GST-Six1/His-Eya2 binding, biochemical; active compounds read low; control for the full effect not named in the record; Q15475+O00167; hit rate 0.56% among 360,000; in the data active = activity change below about -65%; inconclusive = about -30% to -65%; inactive = above about -30%; further: on the % scale 0 is the no-effect control and ±100 the full control effect
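Six1/Eya2 binding was read as AlphaScreen signal after compounds were pinned into GST-Six1 plus His-tagged Eya2 (5X stock 250/500 nM) in pH 8.0 Tris/NaCl/TCEP buffer, beads added, then incubated 1 h, 37 C, dark.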
CtBP-E1A blk: CtBP/E1A binding inhibition; activity change, % (concentration not given with the values); AlphaScreen GST-E1A/His-CtBP binding, 1536-well; active compounds read low; control for the full effect not named in the record; AID 651724; hit rate 0.49% among 340,000; in the data active means activity change below about -65%; inconclusive means about -30% to -65%; inactive means above about -30%; further: on the % scale 0 is the no-effect control and ±100 the full control effect
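Steps: dispense buffer (Tris pH 8.0, NaCl 300 mM, TCEP 1 mM, BSA, Tween 20); add 5X protein mix (GST-E1A, His-CtBP, 125 nM each); pin 23 nL compound; 2 h at 37 °C, dark; add 5X beads (50 ug/mL); 1 h; read.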
PINK1 modulator: modulators of PINK1 expression; PINK1 immunofluorescence, high-content cytometry, 24 h; Potency, µM (top dose mostly 76.6 µM), inactives show top-dose activation (PINK1 increase), actives largely listed as activators; hit rate 0.2% among 410,000; AID 624263; active = well fitted activation curve with a large enough effect; inconclusive = small, poorly fitted or top-dose-only effect; inactive = flat fitted curve, though single readings scatter; cell line not stated here;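 further: potency means the concentration at half of the fitted maximal effect; % of control where 0% means no effect; nearly all actives have a fitted effect of over 65% in size; a mitochondrial uncoupler was the plate control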
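Stable cell line treated 24 h with compounds at 5 concentrations (CCCP controls), then fixed and immunostained for PINK1 plus nuclear and cell stains; PINK1 immunofluorescence quantified by laser-scanning microplate cytometry.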
* = called active by the depositor; ? = inconclusive; / = no result given; & = joins results of further samples; [ ] = remark or other dose.

SMILES | D2 potentiator | Sfp PPTase inh | TRPV1 potentiator | D2 agonist | Six1-Eya2 blk | CtBP-E1A blk | PINK1 modulator
COC(=O)C(O)(c1ccc(NC(=O)c2ccccc2)cc1)C(F)(F)F (configuration not stated) | -20 | -26% | 5 | -2.8 | -1 | / | -0.2%
Cc1ccc(N2C(=O)NC(=O)/C(=C\c3cc(C)n(-c4ccc(C(=O)O)cc4)c3C)C2=O)cc1 | 5 | -23% | 3 | -1.7 | -19 | 3 | 1.0%
O=C(NN=Cc1ccc(N(CCCl)CCCl)cc1)c1cc(=O)[nH]c(=O)[nH]1 | 5 | / | / | 4.4 | -13 | -22 | -1.1%
CCCCCn1c(=O)c(C(=O)NCc2ccccc2)c(O)c2ccccc21 | -4 | -8% | ? | -4.5 | 23 | 3 | ?
Oc1ccc(/C=N/NP(=S)(c2ccccc2)c2ccccc2)c(O)c1O | ? | 40µM* | 0 | 13 | -10 | -2 | /
Clc1cccc(N2Cc3cc(N4CCOCC4)ccc3-n3nncc3C2)c1 | 0 | / | / | 1.7 | -19 | -8 | 0.8%
COc1ccc(CC2C(=O)NC(C)C(=O)N(C)C3C(=O)N(C)C(Cc4ccc(O)c(c4)Oc4ccc(cc4)C3O)C(=O)NC(C)C(=O)NC(C)C(=O)N2C)cc1 (configuration not stated) | -21 | / | / | -5.1 | 0 | 10 | -6.8%
CCCC(=O)Nc1cc(C(=O)N2CCC3(CC2)OCCO3)ccc1S(=O)(=O)c1ccc(C)cc1 | -7 | 18% | 2 | -1.4 | 1 | 1 | -4.0%[38.3 µM]
CN(CC1COc2ccccc2O1)c1nc(-c2cccnc2)nc2ccccc12 (configuration not stated) | -21 | ? | -15 | -1.5 | -9 | 19 | 14%
CCOP(=O)(C#CC(C)(C)C)C1(O)CCCCC1 (configuration not stated) | 7 | -6% | 11 | -1.6 | -1 | 8 | 0.4%
CCCCC(=O)N/N=C/c1c(O)n(C2CC2)c(=S)[nH]c1=O | 16 | 13% | -8 | -4.1 | 0 | 4 | -2.7%
CN1C2CCC1CC(=NO)C2 | -2 | 3% | -8 | 0.4 | 0 | -1 | 0.0%
CSc1ccc(C(=O)C2CCCN(Cc3cccnc3)C2)cc1 (configuration not stated) | -15 | 15% | -7 | -23 | 0 | -11 | 0.3%
O=C1NC(=O)N(Cc2cccs2)C(=O)/C1=C/c1ccc(N2CCOCC2)cc1 | -7 | 50µM* | 21 | 0.0 | -15 | -8 | 3.4%
O=C1OCCC1NC1=NCCC1 (configuration not stated) | 1 | 21% | -3 | -2.1 | 1 | -1 | 1.1%

Next section; it opens with the 2 that closed the last part.
SMILES | D2 potentiator | Sfp PPTase inh | TRPV1 potentiator | D2 agonist | Six1-Eya2 blk | CtBP-E1A blk | PINK1 modulator
O=C1NC(=O)N(Cc2cccs2)C(=O)/C1=C/c1ccc(N2CCOCC2)cc1 | -7 | 50µM* | 21 | 0.0 | -15 | -8 | 3.4%
O=C1OCCC1NC1=NCCC1 (configuration not stated) | 1 | 21% | -3 | -2.1 | 1 | -1 | 1.1%
COc1ccc(CN2CC=C(c3ccc(F)cc3)CC2)cc1Br | -11 | -22% | -3 | -1.2 | 11 | 0 | ?
CCOP(=S)(OCC)SCC(=O)NC(C)(CC)C(=O)O (configuration not stated) | -7 | -17% | -2 | -0.9 | 10 | 4 | -0.4%
CCCCCn1c(=O)c(C(=O)NCc2ccco2)c(O)c2ccccc21 | -6 | 0% | 8 | -3.4 | -1 | -6 | ?
CC(C)N1CCN(Cc2cc3c(cc2Cl)OCO3)CC1CCO (configuration not stated) | -6 | -1% | -3 | -1.4 | 3 | 6 | -1.0%
COc1ccc(-n2c(O)c(/C=C3\C=Nc4ccc(Br)cc43)c(=O)[nH]c2=O)cc1 | -2 | -19% | 6 | -1.4 | 3 | 20 | -3.1%
COc1cc(CN2C(=O)NC(=O)C3(Cc4cc(C)ccc4N(C)C3)C2=O)cc(OC)c1 (configuration not stated) | -19 | ? | 3 | -7.0 | -2 | 0 | 9.6%[38.3 µM]
COc1cccc(CCNCc2c(F)cccc2F)c1 | -9 | -12% | -2 | 3.8 | 5 | / | -0.6%
CCC1(C2=NCCN2)Cc2ccccc2O1 (configuration not stated) | 0 | 27%&6% | 3 | -4.0 | 3 | 7 | -0.9%&-1.3%
c1ccc(NC2=NCCS2)cc1 | -3 | 13% | 19 | 4.8 | -1 | 1 | -1.0%
Cc1ccc(-n2sc3ccccc3c2=O)cc1 | -22 | 1.3µM* | 3 | -3.2 | -9 | -9 | -0.7%
CCc1cc2c(N3CCN(C)CC3)ncnc2s1 | -36 | 0% | 12 | -1.2 | 4 | 10 | -3.0%
Cn1c(CN2CCN(C(=O)COc3ccccc3)CC2)nc2cc([N+](=O)[O-])ccc21 | 2 | 4% | 25 | -1.1 | 0 | 8 | -0.3%
CSc1ccccc1C(=O)C1CCCN(Cc2ccncc2)C1 (configuration not stated) | -12 | -5% | -18 | -2.4 | 2 | 6 | 0.9%
CCOP(=O)(Cc1ccccc1)OCC | -12 | / | -5 | -2.8 | -2 | / | 0.8%
COc1cc2[nH]c(=S)n(-c3ccccc3)c(=O)c2cc1OC | 0 | 3% | -3 | -0.6 | -12 | -1 | 8.1%
CCN(CC)CCC(=O)O[C@H]1CC[C@]2(C)C3CC[C@@]4(C)C(CC[C@]4(C)O)C3CC[C@H]2C1 (some centres not stated) | -34 | / | / | -0.6 | -5 | -2 | 1.2%
CCCN1CC[C@@H]2c3cc(O)ccc3CC[C@@H]21 | / | 14% | 12 | 7.3 | 2 | 1 | 0.3%
CN1CCC2(CC1)CC(NC=O)c1ccccc1O2 (configuration not stated) | 4 | 24% | -19 | -1.9 | 0 | 0 | -0.1%
COC(=O)C1=C(c2ccc(OCc3ccccc3)cc2)C[C@@H]2CC[C@H]1N2C(=O)NCc1ccc(OC)cc1 | -2 | / | / | -9.4 | -20 | -7 | 0.6%
OC(c1ccc(F)cc1)(c1ccc(F)cc1)[C@@H]1CCCN1 | 6 | 1% | -10 | -4.9 | 7 | -2 | -1.5%
CN(C)P(=NC(=S)c1cccn1C)(N(C)C)N(C)C | -21 | -24% | 4 | -4.0 | -2 | -23 | -4.1%[38.3 µM]
O=C1NC(=S)NC(=O)C1C/C=C/c1ccccc1 | -13 | 45µM* | 0 | -2.2 | 0 | 9 | 4.0%[38.3 µM]
COc1ccc(NC(=S)N2Cc3ccccc3-n3nncc3C2)c(OC)c1 | 1 | / | / | -7.1 | 2 | 3 | -0.4%
O=c1c2ccccc2nc(-c2ccc(-c3ccccc3)cc2)n1-c1ccncc1 | -7 | -23% | -14 | -0.7 | -10 | -8 | /
COCCN1C(=O)NC(=O)/C(=C\c2ccc(Br)cc2)C1=O | -6 | 50µM* | 18 | 0.1 | -1 | / | -0.3%
CC1CCC2[C@@H](C)C(=O)OC3O[C@]4(C)CCC1C32OO4 (some centres not stated) | 53* | / | / | ? | 1 | 1 | -0.5%
CCN(CC)C(=O)c1ccc(NC(=O)c2ccc3c(c2)NC(=O)CS3)cc1 | -9 | / | / | 1.3 | 3 | 0 | 7.5%
COc1ccc(-c2ccc3n2Cc2cnnn2-c2ccccc2-3)cc1 | 0 | / | / | 1.6 | ? | -27 | -0.3%
CCc1ccccc1N1C(=O)CC(=O)NC1=O | -15 | -17% | 20 | -0.3 | 4 | 2 | 0.7%
CCOC(=O)c1cnc(N2CC2)nc1N | -4 | / | / | 0.2 | 9 | 5 | -4.0%
CC(=O)c1ccc2c(c1)OCO2 | -26 | 0% | 9 | 5.2 | 3 | 3 | -0.2%
COc1ccc2c(C)c(CC(=O)N3C[C@H]4C[C@@H](C3)c3cccc(=O)n3C4)c(=O)oc2c1C | -37 | 14% | 9 | -7.6 | 1 | -24 | 1.6%
O=C1NC(=O)C(C2CCOC2=O)N1 (configuration not stated) | -7 | / | / | -1.9 | -3 | -15 | 1.1%
CC1(C)CC(N(CCc2ccccc2)Cc2ccccc2)CCO1 (configuration not stated) | -6 | 13% | 1 | -4.5 | 22 | 9 | 6.3%
O=C(COc1ccc2ccc(=O)oc2c1)N1CCC(C(=O)O)(c2ccccc2)CC1 | -6 | 11% | 7 | -4.8 | -14 | 2 | -0.7%
CCOC(=O)c1[nH]ncc1CN1CCCC(C(=O)c2cccc(Cl)c2)C1 (configuration not stated) | -28 | 16% | -1 | -1.9 | -1 | 3 | 1.0%
CN1C(=O)N(C)C(=O)C(CCc2ccncc2)(Cc2ccc3c(c2)OCO3)C1=O | -2 | 3% | 17 | -2.7 | -1 | 3 | -1.0%[38.3 µM]
COc1ccc(CCn2c(O)c(/C=N/NC(=O)c3ccncc3)c(=O)[nH]c2=O)cc1OC | 3 | 9% | 9 | -1.0 | ? | ? | -0.6%
COc1ccc(OCC#CCN2CCNCC2)cc1 | -16 | ? | 8 | 0.1 | 1 | -11 | -1.4%
FC(F)(F)Oc1ccc(C2NCc3ccccc3-n3cccc32)cc1 (configuration not stated) | -10 | 0% | 5 | 3.2 | -15 | / | 16%
CN1CCN(C(=O)COc2ccc(-c3nc4ccccc4s3)cc2)CC1 | -22 | 2% | -13 | -0.2 | -7 | 7 | 2.6%[38.3 µM]

Compound profiles (already shown):
COc1ccc(CN2CC=C(c3ccc(F)cc3)CC2)cc1Br as listed: D2 potentiator: -11; Sfp PPTase inh: -22%; TRPV1 potentiator: -3; D2 agonist: -1.2; Six1-Eya2 blk: 11; CtBP-E1A blk: 0; PINK1 modulator: ?
FC(F)(F)Oc1ccc(C2NCc3ccccc3-n3cccc32)cc1 (configuration not stated) as listed: D2 potentiator: -10; Sfp PPTase inh: 0%; TRPV1 potentiator: 5; D2 agonist: 3.2; Six1-Eya2 blk: -15; CtBP-E1A blk: /; PINK1 modulator: 16%
COCCN1C(=O)NC(=O)/C(=C\c2ccc(Br)cc2)C1=O as listed: D2 potentiator: -6; Sfp PPTase inh: 50µM*; TRPV1 potentiator: 18; D2 agonist: 0.1; Six1-Eya2 blk: -1; CtBP-E1A blk: /; PINK1 modulator: -0.3%

This is a subset; the hit share may differ from the screen's.
